Bioassay records: PubChem BioAssay, National Center for Advancing Translational Sciences (NCATS)
GLA inh pH 4.5 = inhibitors of human alpha-galactosidase A at pH 4.5 | activity change, negative = inhibition, % at 105 µM | purified enzyme, 4-MU-alpha-Gal fluorescence, pH 4.5 | 230,000 tested, under 10 active | P06280; inconclusive = small, poorly fitted or top-dose-only inhibition, or a rising curve; inactive = flat fitted curve, though single readings scatter; no compound was filed as active;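 also: 0% = full activity with enzyme and -100% = basal without enzyme; dose as in the result columns while the protocol names 77 µM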
Target sequence (P06280 whole entry, looked up): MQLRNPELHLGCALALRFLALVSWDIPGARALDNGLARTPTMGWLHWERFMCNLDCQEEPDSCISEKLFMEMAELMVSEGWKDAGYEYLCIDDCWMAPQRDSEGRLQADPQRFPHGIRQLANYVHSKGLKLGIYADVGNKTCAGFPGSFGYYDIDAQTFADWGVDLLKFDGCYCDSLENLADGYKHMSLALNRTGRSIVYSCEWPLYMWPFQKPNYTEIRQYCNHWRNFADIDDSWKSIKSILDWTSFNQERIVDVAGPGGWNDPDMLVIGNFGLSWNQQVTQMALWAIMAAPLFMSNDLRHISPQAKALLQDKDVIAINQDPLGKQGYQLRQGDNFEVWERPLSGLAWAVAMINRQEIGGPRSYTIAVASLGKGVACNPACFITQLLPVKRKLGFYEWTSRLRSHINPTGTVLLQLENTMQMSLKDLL
miR-21 reporter = raises the signal of a miR-21 reporter; HeLa miR-21 FLuc reporter, luciferase, 48 h; 340,000 tested, under 10 active; AID 2288; Potency, µM (titrated, usually from 38.3 µM), for the others: top-dose reporter change, positive = more light; active = well fitted rising curve with a large enough effect; inconclusive = small, poorly fitted or top-dose-only effect; inactive = no such curve, though single readings can be large or run the other way;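 also: % of control where 0% means no effect; miR-21 action dims this reporter so a rising signal means less miR-21 action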
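HeLa miR-21-FLuc reporter line, endogenous miR-21; 2000 cells/well in DMEM/10% FBS; compound titration up to ~40uM final, 48 h, 37 degree Celsius; luciferase detection reagent, 15 min lysis, CCD luminescence.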
Rango complex inh = Rango-importin beta binding inhibition | Potency, µM (series often up to 92.2 µM), inactives show at the top dose inhibition of complex formation | 0.031% of 340,000 active | Rango CFP/YFP FRET sensor + importin beta, 45 min | Q14974; active = rising FRET ratio curve, often small or poorly fitted; inconclusive = mostly compound fluorescence or quenching in the first reads; inactive = flat curves in all reads;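 also: potency is read from the fitted curve at half-maximal effect; 0% = DMSO wells and 100% = buffer wells lacking importin beta; nearly all actives have a fitted effect of over 15% in size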
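FRET biosensor Rango (snurportin 1 IBB between N-terminal EYFP and C-terminal Cerulean), 50 nM in PBS/1 mM DTT/0.02% Tween-20/0.1% BSA, preincubated 5 min RT with compound; 0.125 microM importin beta added, 45 min RT, CFP/YFP FRET ratio read.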
Rango release inh = inhibitors of RanGTP-induced Rango-importin beta complex dissociation; O95149+P62826; Biochemical FRET Rango-importin beta, RanGTP-induced dissociation; Potency, µM (series often up to 46.1 µM), without a hit: at the highest dose activity change, negative = inhibition; 0.071% of 340,000 active; AID 540253; active means falling FRET ratio curve, often poorly fitted, with flat reads before Ran was added; inconclusive means other falling curves, or compound fluorescence or quenching; inactive means flat or rising ratio curve;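 also: potency is read from the fitted curve at half-maximal effect; % of control where 0% means no effect; nearly all actives have a fitted effect of over 45% in size; -100% = wells without RanGTP and RCC1; the record marks most hits as doubtful in a second field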
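Rango FRET biosensor (snurportin-1 IBB flanked by N-terminal EYFP and C-terminal CFP10) at 0.1 uM, with 0.25 uM importin beta in PBS, 1mM DTT, 0.02% Tween-20, 0.1% BSA. 0.6 uM Ran, 2mM GTP and 0.2 uM RCC1 were then added for 45 min at room temperature. Inhibition read as loss of FRET rise.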
The depositor's hits bear a star; ? = inconclusive; / = no result given.

SMILES	GLA inh pH 4.5	miR-21 reporter	Rango complex inh	Rango release inh
COc1ccc(S(=O)(=O)N2CCC(C(=O)N3CCCCC3)CC2)cc1OC	0	-2%	1.9%	-12%
CCc1cccc(CC)c1NC(=O)COC(=O)c1cccc(-c2ccc(OC(C)=O)cc2)c1	9	-4%	2.0%	-4%
O=C1c2cccc([N+](=O)[O-])c2C(=O)N1CCO	0	-6%	-8.2%	-4%
CCCCCOC(=O)C1[C@H]2C(=O)N(c3ccccc3CC)C[C@]23C=C[C@H]1O3 (stereo partly specified)	1	3%	?	0%
Cc1cc2ccccc2cc1C(=O)c1ccccc1	/	/	6.0%	-4%
CCOc1ccc(C(=O)CCC(=O)N2CCC(C(=O)OC)CC2)cc1	/	-1%	?	-3%
O=C(Cc1ccccc1)Nc1ccccc1C(=O)O	4	-36%	-1.1%	-12%
COc1ccccc1NC(=O)Nc1nc(CC(=O)NCc2ccccn2)cs1	/	/	-3.2%	16%
O=C(CN1CCN(S(=O)(=O)c2ccccc2)CC1)NC1CC1	/	-1%	-0.6%	17%
Fc1ccc(-[n+]2nc(Nc3ccccc3)sc2-c2ccc(OCc3ccccc3)cc2)cc1	/	0%	0.7%	-10%
COc1ccc(-c2cc(C(=O)NC3=NCCS3)c3ccccc3n2)cc1OC	-31	-24%	0.1%	1%
CC(=O)c1ccc(N2CCN(Cc3cc(=O)n4c(-c5ccccc5)csc4n3)CC2)cc1	/	/	-1.6%	1%
N/C(=N\OC(=O)c1ccccc1Br)c1ccc([N+](=O)[O-])cc1	/	-55%	-1.8%	-3%
Cc1ccsc1-c1nc(CSCC(=O)N2CCN(c3ccccc3)CC2)c(C)o1	-11	16%	-2.0%	-5%
Cc1cccc(OCCC(=O)Nc2c(C)n(C)n(-c3ccccc3)c2=O)c1	-7	-6%	0.3%	6%
O=C(NC1CCCCCCC1)c1ccc(CNc2c(N3CCOCC3)c(=O)c2=O)cc1	3	-38%	3.2%	-18%
Cc1ccc(OCCn2cc(/C=C/C(=O)O)c3ccccc32)cc1	/	-12%	-8.7%	-8%
Cc1ccc(-n2c(SCC(=O)Nc3ccc4c(c3)OCO4)nnc2-c2cccs2)cc1	-1	-2%	2.5%	-8%
COc1ccc(NC(=O)c2ccco2)cc1NC(=O)c1cccc(OC(C)C)c1	1	11%	6.7%	-17%
CNC(=O)C(=O)Nc1ccc(C)cc1C	3	-3%	0.4%	1%
Cc1ccc(S(=O)(=O)CCN2CCC(O)(c3ccccc3)CC2)cc1	/	4%	3.8%	-12%
CC(=O)c1cc(Cl)ccc1OCC(=O)Nc1cccc(S(=O)(=O)N2CCCC2)c1	/	/	-2.6%	12%
CC(=O)Nc1ccccc1C(=O)C(=O)Nc1ccc(F)c(Cl)c1	/	-50%	-0.6%	1%
CCOC(=O)c1cc(S(=O)(=O)NCC2CCN(Cc3cccc(C)c3)CC2)cn1C	/	1%	1.5%	6%
Cc1ccsc1/C=N/N1CCN(c2ccccn2)CC1	9	-55%	-0.9%	1%
CCC(CC)NC(=O)c1cccc([N+](=O)[O-])c1C	4	-7%	?	15%
COc1ccc2c(c1)[nH]c1c(=O)n(CCCn3ccnc3)cnc12	-2	-6%	?	1%
O=C(c1cc(-c2ccc(Cl)cc2)on1)N1CCOCC1	-4	-23%	-0.3%	7%
COc1ccc(-c2cc(C(=O)Nc3ccc(OC)cc3OC)no2)cc1	/	-1%	-0.3%	0%
NC(=O)C[C@@H]1N[C@]2(C(=O)Nc3ccccc32)[C@@H]2C(=O)N(c3cc(C(F)(F)F)ccc3Cl)C(=O)[C@H]12	5	0%	-0.1%	0%
Cc1ccc(-n2c(SCC(N)=O)nnc2-c2ccco2)cc1	/	-5%	2.3%	2%
COn1c(-c2ccccc2)nc2c1CCc1nonc1-2	-1	-1%	0.6%	3%
COCCN1C(=O)N[C@@H](c2ccccc2)[C@H](C(=O)OC)[C@H]1C	-4	/	-3.5%	-11%
O=C(CSc1nc2ccc(Cl)cc2[nH]1)Nc1ccc2c(c1)CCC2	-10	-9%	1.6%	-9%
CCOC(=O)CNC(=O)CSc1nnc(-c2ccccc2OC)n1CC	5	1%	?	17%
O=C(c1ccc(NC2=NC3CS(=O)(=O)CC3S2)cc1)N(CCO)Cc1ccccc1 (stereo unspecified)	/	2%	-0.3%	-2%
Cn1c(CCc2ccccc2)nnc1SCC(=O)N1CCOCC1	2	-6%	1.6%	32%
COc1ccc(-c2sc3ccc(N4CCOCC4)cc3c2C#CC(C)(C)O)cc1	/	/	0.2%	-5%
c1ccc(NCCC2OCC3(CO2)COC(CCNc2ccccc2)OC3)cc1 (stereo unspecified)	/	/	-1.3%	8%
COc1ccc(C(=O)CC(=O)C(=O)Nc2ccc(Cl)cc2)cc1	/	-13%	1.3%	-7%
CN(C)S(=O)(=O)c1ccc(Cl)c(-c2nnc3n2CCCCC3)c1	-4	-1%	-0.8%	-10%
Cc1nc2ccccn2c1C(=O)CSc1ccccc1	-10	-24%	-3.8%	-8%
COc1ccc(NC(=S)N2CCCC(CO)C2)c(OC)c1 (stereo unspecified)	5	-12%	-4.4%	11%
O=[N+]([O-])c1ccc(C=Nc2cccc3ccccc23)s1	9	7%	-0.4%	1%
COc1ccc(C)cc1S(=O)(=O)NC(C)c1cnn(-c2ccccn2)c1C (stereo unspecified)	/	/	0.2%	-1%
COc1cc(/C=C/C(=O)OCC(=O)NCCCc2ccccc2)cc(OC)c1OC	/	/	-0.5%	1%
O=Cc1ccc(N2Cc3ccccc3C2)cc1	/	-30%	-0.3%	17%
Cc1ccc(C(NC(=O)NN2CCN(C)CC2)C(Cl)Cl)cc1F (stereo unspecified)	/	-33%	0.2%	2%
COc1cc(C(=O)O/N=C(\N)c2ccncc2)cc(OC)c1OC	4	-13%	-4.9%	-7%
C[C@H](CO)N1C[C@H](C)[C@@H](CN(C)Cc2ccc(Cl)c(Cl)c2)Oc2c(NC(=O)CCC(F)(F)F)cccc2C1=O	/	/	-0.2%	1%
O=S(=O)(N1CCOCC1)N1CCN(c2ccccc2F)CC1	-6	2%	-2.7%	-9%
COc1ccc(N2C(=O)CC(N(CCc3ccccc3)C(=O)c3ccccc3)C2=O)cc1 (stereo unspecified)	-2	-3%	5.6%	10%
CCN(C(=O)C1CCCN(c2nc(-c3ccc(OC)cc3)no2)C1)c1ccc(OC)cc1 (stereo unspecified)	/	15%	-3.5%	-12%
O=C(O)c1cccc2c1C(=O)N(c1ccccc1)C2	/	2%	-4.2%	0%
Cc1c(C(=O)Nc2ccccc2)cnn1-c1ccccc1	/	/	-2.1%	11%
Cc1nn(Cc2ccc(C(=O)N3CCOCC3)o2)c(C)c1Br	-2	-6%	-1.5%	-9%
CCC(C)[C@H](NC(=O)Nc1cccc(Cl)c1)C(=O)O (stereo partly specified)	3	-6%	2.9%	2%
Cc1cccc(C2c3[nH]c4ccccc4c3CCN2C(=O)Cc2n[nH]c(C)n2)n1 (stereo unspecified)	-1	-1%	?	-13%
O=C(NCc1ccncc1)c1cccc(S(=O)(=O)N2CCc3ccccc32)c1	/	/	-5.6%	-7%
CSCC[C@H](NC(=O)OC(C)(C)C)c1nnc(SCC(=O)Nc2ccc(C)cc2C)o1	1	6%	3.3%	-2%

Full records from above. Values in the order: GLA inh pH 4.5 | miR-21 reporter | Rango complex inh | Rango release inh
Shown for `Cc1cccc(C2c3[nH]c4ccccc4c3CCN2C(=O)Cc2n[nH]c(C)n2)n1` (stereo unspecified) : -1 | -1% | ? | -13%
Shown for `COc1cc(C(=O)O/N=C(\N)c2ccncc2)cc(OC)c1OC` : 4 | -13% | -4.9% | -7%
Shown for `Cc1ccc(C(NC(=O)NN2CCN(C)CC2)C(Cl)Cl)cc1F` (stereo unspecified) : / | -33% | 0.2% | 2%
Shown for `O=S(=O)(N1CCOCC1)N1CCN(c2ccccc2F)CC1` : -6 | 2% | -2.7% | -9%

Additional structures
SMILES	GLA inh pH 4.5	miR-21 reporter	Rango complex inh	Rango release inh
CCn1c(N2CCN(C(c3ccccc3)c3ccccc3)CC2)nc2c1c(=O)[nH]c(=O)n2C	/	/	?	-17%
COCCN(Cc1cccs1)S(=O)(=O)c1ccc(-c2ccc(=O)[nH]n2)s1	/	-13%	0.5%	-10%
O=C(Nc1ccccc1N1CCN(C(=O)c2ccccc2)CC1)c1cc(Br)ccc1Cl	-2	6%	0.0%	-6%
O=C(CN1C(=O)c2ccccc2S1(=O)=O)NCc1cccnc1	1	-3%	0.6%	0%
CC(Sc1ccccc1F)C(=O)Nc1cccc(S(=O)(=O)N2CCOCC2)c1 (stereo unspecified)	/	/	2.9%	-8%
CC(C)[C@H](NC(=O)N1CC(=O)Nc2ccccc21)C(=O)N[C@H](Cc1ccccc1)C(=O)O	/	0%	-0.9%	15%
CC(Cc1cccnc1)NC(=O)c1ccccc1OC1CCN(S(C)(=O)=O)CC1 (stereo unspecified)	4	-3%	-1.8%	-2%
COc1nc(N(C)C)nc(N(OC)S(=O)(=O)c2ccccc2Cl)n1	10	-14%	0.0%	4%
O=C(CCC1CCN(C(=O)c2ccccc2Cl)CC1)NCc1ccc(F)cc1	/	0%	3.4%	-3%
OC1CCN(Cc2nc(Cc3ccccc3Cl)no2)CC1	0	-10%	2.9%	-1%
CC(C)C(c1nnnn1C1CCCC1)N1c2ccccc2CC1C (stereo unspecified)	5	19%	-3.7%	-8%
CCOC(=O)c1cc2c(=O)n3ccccc3nc2n(CC2CCCO2)c1=NC(C)=O (stereo unspecified)	?	-24%	?	?
CCc1ccc(C(C)NC(=S)NC2CCCCC2)cc1 (stereo unspecified)	/	14%	-2.0%	-5%
CC(OC(=O)c1ccc(S(=O)(=O)NCc2ccco2)cc1)C(=O)Nc1ccccc1 (stereo unspecified)	/	/	-0.4%	1%
CN(Cc1cnccn1)Cc1cn(Cc2ccccc2)nc1-c1ccc2c(c1)OCO2	2	-5%	-0.3%	8%
CC(NC(=O)C12CC3CC(CC(O)(C3)C1)C2)c1ccc(Cl)cc1Cl (stereo unspecified)	/	4%	-1.1%	-17%
CNc1ncc(Cc2ccccc2)s1	-9	-21%	-0.6%	16%
COc1cc(SC)ccc1C(=O)Nc1cccc(S(=O)(=O)NC2=NCCC2)c1	/	/	-0.2%	3%
Cc1ccc2c(c1)[C@H]1[C@H](CO2)[C@H](c2ccccc2)[C@]2(C)C(=O)Nc3ccc(F)cc3C(=O)N12	/	/	-1.7%	2%
CC1=NOC(=O)/C1=C\c1ccc(-c2ccc(Cl)cc2Cl)o1	1	0%	0.1%	24%
CCC(C)(C)c1ccc(OCC(=O)Nc2ccncc2)cc1	/	-10%	0.3%	7%
O=C(c1ccc(Cl)cc1)c1oc2ccccc2c1CS(=O)c1ccccc1 (stereo unspecified)	3	-11%	-1.9%	10%
CCN(CC)CCCn1c(C)cc2c(c1=O)C(c1cccc(Cl)c1)C(C#N)=C(N)O2 (stereo unspecified)	4	4%	0.2%	1%
O=C(CSc1nc2ccc(Cl)cc2[nH]1)c1cccs1	3	-54%	1.5%	-13%
CCOC(=O)C1CCCN(C(=O)c2ccc([N+](=O)[O-])cc2)C1 (stereo unspecified)	-6	0%	2.4%	12%
CCCC(=O)Nc1ccccc1NC(=O)CN(C)S(=O)(=O)c1ccc(C)cc1	-1	-8%	-0.1%	19%
Cc1ccn2cc(CCNS(=O)(=O)c3ccc([N+](=O)[O-])cc3)nc2c1	-2	-1%	-3.4%	0%
Cc1ccc(S(=O)(=O)NC(=O)Nc2ccc(F)cc2)cc1	-3	-4%	3.4%	0%
CN(C)/C=C/C(=O)Oc1ccc(Cl)cc1Cl	0	-2%	-2.0%	-2%
CCCN(CCC)C(=O)CC(c1ccc(F)cc1)c1ccco1 (stereo unspecified)	-2	-1%	-1.4%	-15%
CC(=O)OCCn1c(C)[n+](CCOC(C)=O)c2cc(Cl)c(Cl)cc21	0	-1%	0.6%	-10%
CCOC(=O)NCc1cc(-c2nn(C)c(=O)c3ccccc23)ccc1C	-1	-5%	-2.3%	0%

These rows are one share of the data; the hit share may differ from the screen's.
